D2 PAM: Beta-Arrestin HTS for Positive Allosteric Modulators of the Human D2 Dopamine Receptor: Potentiators; D(2) dopamine receptor (Homo sapiens), P14416; DiscoveRx D2 beta-arrestin cells, luminescence, 90 min; 100% = 57 uM dopamine signal; 0.23% of 360,000 active; potentiation, % (test concentration not listed); active = potentiation of 50% or more; inconclusive = 30% to 50%; inactive = 30% or less;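 also: compound concentration not given in the record; tested on top of an EC20 dose of dopamine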
Target sequence (P14416 whole entry, looked up): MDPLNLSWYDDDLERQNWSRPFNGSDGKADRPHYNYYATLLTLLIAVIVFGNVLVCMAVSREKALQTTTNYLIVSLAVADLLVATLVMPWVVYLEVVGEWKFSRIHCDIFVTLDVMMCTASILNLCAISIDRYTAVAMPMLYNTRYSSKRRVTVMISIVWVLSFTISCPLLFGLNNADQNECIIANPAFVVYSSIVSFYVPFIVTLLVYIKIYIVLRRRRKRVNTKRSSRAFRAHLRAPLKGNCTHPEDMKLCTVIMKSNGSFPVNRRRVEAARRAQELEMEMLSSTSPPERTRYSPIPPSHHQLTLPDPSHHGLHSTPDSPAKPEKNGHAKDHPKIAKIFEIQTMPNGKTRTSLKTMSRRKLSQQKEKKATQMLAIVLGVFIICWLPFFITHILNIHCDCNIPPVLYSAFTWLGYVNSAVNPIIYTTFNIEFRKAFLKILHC
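D2 cells co-treated with compound plus 50 nM dopamine (EC20) for 90 min at 37 deg C to detect potentiation. Beta-arrestin recruitment was read as enzyme-fragment luminescence after 1 h at ambient temperature. Full response was set by 57 uM dopamine.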
Sfp inh: qHTS Assay for Inhibitors of Bacillus subtilis Sfp phosphopantetheinyl transferase (PPTase). Biochemical Sfp PPTase activity, qHTS. 3.5% of 310,000 active. Potency, µM, inactives show max response, negative = inhibition, most hits filed as inhibitors. AID 1490, 2009; active = well fitted inhibition curve with a large enough effect; inconclusive = small, poorly fitted or top-dose-only effect, or another doubt; inactive = no such curve, though single readings can be large or run the other way;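 also: the enzyme is Sfp with the accession as filed and its product quenches rhodamine fluorescence; potency is read from the fitted curve at half-maximal effect; 0% = enzyme reaction without inhibitor and -100% = no enzyme wells; top concentration of the series not given in the record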
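Buffer: 50 mM Hepes-Na pH 7.6, 10 mM MgCl2, 0.01% Nonidet P-40, 0.01% BSA. Enzyme 15 nM, pre-exposed to compound 15 min; substrates then added and fluorescence change tracked over 30 min.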
CtBP-E1A inh: qHTS Assay for Inhibitors of the CtBP/E1A Interaction | AlphaScreen GST-E1A/His-CtBP binding, 1536-well; stronger effect = lower value; control for the full effect not named in the record | 0.49% of 340,000 active | activity change, % (no concentration beside the values); in the data active means activity change below about -65%; inconclusive means about -30% to -65%; inactive means above about -30%; also: % is scaled to controls: 0 for no effect and ±100 for the full control effect; compound concentration not given in the record
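Protein mix (5X: 125 nM each GST-E1A, His-CtBP) was incubated with pinned compound 2 h at 37 deg C in dark, in 50 mM Tris pH 8.0 buffer with 300 mM NaCl. Glutathione donor and nickel acceptor beads followed; AlphaScreen signal read after 1 h.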
PINK1 modulator: A Quantitative High throughput Screen to Identify Chemical Modulators of PINK1 Expression | PINK1 immunofluorescence, high-content cytometry, 24 h | 0.2% of 410,000 active | AID 624263, 2012 | Potency, µM (top dose mostly 76.6 µM), inactives show at the highest dose activation (PINK1 increase), hits mostly activators; active = well fitted activation curve with a large enough effect; inconclusive = small, poorly fitted or top-dose-only effect; inactive = flat fitted curve, though single readings scatter; cell line not stated here;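 also: potency is read from the fitted curve at half-maximal effect; % of control where 0% means no effect; nearly all actives have a fitted effect of over 65% in size; a mitochondrial uncoupler was the plate control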
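PINK1 protein, normally rapidly degraded, was detected by immunofluorescence after 24 hour compound treatment of a stable cell line. Titration data (5 concentrations) came from laser-scanning cytometry, with CCCP-treated wells as controls.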
D2 ag: Beta-Arrestin HTS for Positive Allosteric Modulators of the Human D2 Dopamine Receptor: Agonists; D(2) dopamine receptor (Homo sapiens), P14416; DiscoveRx PathHunter D2 beta-arrestin, luminescence, 90 min; 100% = 57 uM dopamine signal; activation, % (concentration not given with the values); 0.084% of 360,000 active; AID 624465, 2012; in the data active = activation above about 40%; inconclusive = about 15% to 40%; inactive = below about 15%; also: compound concentration not given in the record; the text of the record calls up to 30% inactive
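DiscoveRx PathHunter D2 beta-arrestin cells (2,100/well) attached overnight, then compound-stimulated 90 min at 37 C in HBSS/10 mM HEPES/0.1% Tween-20 buffer; beta-galactosidase complementation read by luminescence after 1 h at ambient temperature. Dopamine 57 uM final (EC100) as control.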
TRPV1 PAM: HTS Assay for Compounds that Act as Potentiators of the Vanilloid Receptor 1; Transient receptor potential cation channel subfamily V member 1 (Homo sapiens), Q8NER1; TRPV1-expressing cells, Fluo-8 calcium influx, capsaicin EC20 potentiation; host cell line not named in the record; control for the full effect not named in the record; potentiation, % at 8.33 µM; 0.02% of 320,000 active; AID 540277, 2011; active means potentiation above 80%; inconclusive means 30% to 80%; inactive means below 30%; also: 0% is about no effect
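Fluo-8 calcium influx in TRPV1-expressing cells, kinetic read (ex 480/em 520 nm). Compound added and read 3 min for agonist activity, followed by capsaicin at EC20 final and 2 min further read for enhancement.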
Six1-Eya2 blk: qHTS Assay for Inhibitors of the Six1/Eya2 Interaction; Homeobox protein SIX1 (Homo sapiens) + Protein phosphatase EYA2 (Homo sapiens), …; AlphaScreen GST-Six1/His-Eya2 binding, biochemical; stronger effect = lower value; control for the full effect not named in the record; activity change, % (concentration not given with the values); 0.56% of 360,000 active; AID 651725, 2012; in the data active = activity change below about -65%; inconclusive = about -30% to -65%; inactive = above about -30%; also: % is scaled to controls: 0 for no effect and ±100 for the full control effect
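GST-Six1 + His-Eya2 (5X stock: 250/500 nM); Tris pH 8.0, 300 mM NaCl, 0.05% BSA, 0.02% Tween 20; GSH donor/Ni acceptor beads; 1 h 37 °C dark; AlphaScreen readout.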
Starred values were filed as active, the others as inactive; ? = inconclusive; . = no result given; [ ] = another dose, or the depositor's remark. Not a hit list (roughly 3.7% active in at least one column).

item	smiles	Six1-Eya2 blk	D2 PAM	CtBP-E1A inh	PINK1 modulator	TRPV1 PAM	Sfp inh	D2 ag
1	O=C(N/N=C/c1cccc(OC(=O)c2ccccc2Cl)c1)c1cccnc1	?	-2.2	-8.8	7.7%	-8.1	9.8%	-0.1
2	CCOc1cccc(/C=C/c2cc(C(=O)O)c3ccccc3n2)c1OC	-0.2	-10.1	-4.8	-0.2%	-9.0	14.6%	-2.9
3	CCCCn1c(N)c(N(CCC(C)C)C(=O)COC(=O)c2ccco2)c(=O)[nH]c1=O	-0.9	4.2	6.3	-3.7%	2.2	24.8%	-0.1
4	CC(=O)Nc1ccc2nc(-c3cccnc3)[nH]c2c1	-11.3	23.0	-4.4	1.7%	-1.3	11.5%	-1.6
5	Cc1ccc2c(c1)C1(SC(C)C(=O)N1c1ccc(Cl)cc1)C(=O)N2 (stereo unspecified)	-9.1	2.5	3.5	3.9%	.	.	-11.4
6	O=C(OCc1nnc(-c2ccccc2)o1)c1ccc(Cl)cc1	12.9	-1.7	0.4	0.5%	-3.0	-24.3%	-3.9
7	C[C@H](CO)N1C[C@H](C)[C@@H](CN(C)C(=O)Nc2ccc(C(F)(F)F)cc2)Oc2c(NS(=O)(=O)c3cccs3)cccc2C1=O	3.8	-2.0	2.9	1.8%	.	.	-1.0
8	COc1ccccc1C(c1nnnn1C(C)(C)C)N1CCCCCC1 (stereo unspecified)	-1.5	-13.2	-4.5	-1.0%[38.3 µM]	-15.0	-4.7%	-3.5
9	CC(=O)Oc1ccc(C(=O)Nn2cnnc2)cc1	6.0	-7.6	7.4	-1.4%	.	.	-3.6
10	COc1ccc(-c2cc(=NC(CC(C)C)C(=O)O)c3cc(C)ccc3o2)cc1 (stereo unspecified)	-4.6	-9.6	1.4	0.7%	-10.0	2.7%	4.2

item	smiles	Six1-Eya2 blk	D2 PAM	CtBP-E1A inh	PINK1 modulator	TRPV1 PAM	Sfp inh	D2 ag
11	O=C(CSc1nccc(-c2cccs2)n1)Nc1cccc(Cl)c1Cl	3.0	-7.4	7.2	2.4%	15.4	?	-0.7
12	Cc1sc2nc(SCc3ccc(C(=O)O)cc3)n(Cc3ccco3)c(=O)c2c1C	-5.7	7.0	-3.1	-0.1%	-2.7	-23.6%	4.9
13	COc1ccccc1NC(=O)c1cc(S(=O)(=O)N2CCOCC2)ccc1Cl	-0.5	-10.1	2.1	-1.0%	-1.1	13.9%	-1.4
14	COc1cc(CNCc2ccncc2)ccc1OCC(N)=O	-3.8	-0.1	-3.3	-1.7%	.	.	0.9
15	O=C(CCCn1c(=O)[nH]c2cc(Cl)ccc2c1=O)NCCCN1CCCC1	-2.3	-43.6	-4.4	-0.2%	0.7	6.2%	-4.4
16	Cc1cc(F)ccc1NC(=S)NC1CCCC1	-3.0	-10.5	4.1	0.4%	-13.2	-1.5%	-1.3
17	CCNC(=O)C1(C)CCN(C(=O)c2ccc3ccccc3c2)C1 (stereo unspecified)	2.0	-5.6	4.0	0.5%	.	.	-3.6
18	O=C(O)c1c(-c2ccc(Cl)cc2)cn2ccccc12	-2.8	1.0	-15.1	1.9%	0.8	0.0%	-0.8
19	Cc1ccc(S(=O)(=O)NNC(=O)Nc2ccc(Cl)c(Cl)c2)cc1	23.3	-13.6	.	2.8%	-2.7	-0.1%	-1.0
20	Cc1ccc(C(=O)NCc2ccccc2)cc1Br	1.8	-9.3	14.7	5.2%	-14.2	-0.5%	-1.8

item	smiles	Six1-Eya2 blk	D2 PAM	CtBP-E1A inh	PINK1 modulator	TRPV1 PAM	Sfp inh	D2 ag
21	CCOC(=O)c1c(NC(=O)CCS(=O)(=O)c2ccccc2)sc2c1CCN(C)C2	3.8	-4.3	4.9	12.2%	-2.7	-5.3%	-1.8
22	CCCc1ccc(C(C)NC(=O)c2cnccn2)cc1 (stereo unspecified)	-3.7	-25.5	4.9	-0.5%	-11.4	2.3%	2.4
23	COc1ccc(C(C)=O)cc1COc1nc(C)nc2ccccc12	-3.7	3.6	-2.6	2.3%	5.7	10.6%	-4.4
24	CC1CCN(S(=O)(=O)c2ccc(NC(=O)C3CC3)cc2)CC1	2.3	-0.3	3.1	3.1%	-23.2	6.1%	5.9
25	O=C(CSc1nnc(-c2cccs2)n1Cc1ccccc1)NCc1ccc2c(c1)OCO2	0.9	6.4	-10.3	-2.0%	8.2	-10.0%	-1.9
26	O=C(/C=C/c1ccccc1[N+](=O)[O-])Nc1cc(S(=O)(=O)N2CCOCC2)ccc1N1CCOCC1	5.4	2.4	.	2.3%	.	.	-1.2
27	Cn1c(=O)oc2cc(S(=O)(=O)N3CCCC3)ccc21	4.0	-1.5	-17.1	1.5%	-12.1	1.8%	1.0
28	O=C(O)Cn1ncn(-c2ccc(OC(F)(F)F)cc2)c1=O	6.4	-2.3	.	1.3%	-5.6	19.1%	5.2
29	CCOC(=O)CC1c2nc3ccccc3cc2CN1C(=O)OCC (stereo unspecified)	-5.2	-5.1	1.1	-0.5%	.	.	-1.8
30	O=S(=O)(Nc1nc(CN2CCOCC2)nc2sc3c(c12)CCCC3)c1cc(F)ccc1F	1.0	-4.7	-3.4	2.6%	11.2	3.1%	-2.9

Looked up one by one from the entries so far (4):
item	smiles	Six1-Eya2 blk	D2 PAM	CtBP-E1A inh	PINK1 modulator	TRPV1 PAM	Sfp inh	D2 ag
25	O=C(CSc1nnc(-c2cccs2)n1Cc1ccccc1)NCc1ccc2c(c1)OCO2	0.9	6.4	-10.3	-2.0%	8.2	-10.0%	-1.9
30	O=S(=O)(Nc1nc(CN2CCOCC2)nc2sc3c(c12)CCCC3)c1cc(F)ccc1F	1.0	-4.7	-3.4	2.6%	11.2	3.1%	-2.9
22	CCCc1ccc(C(C)NC(=O)c2cnccn2)cc1 (stereo unspecified)	-3.7	-25.5	4.9	-0.5%	-11.4	2.3%	2.4
21	CCOC(=O)c1c(NC(=O)CCS(=O)(=O)c2ccccc2)sc2c1CCN(C)C2	3.8	-4.3	4.9	12.2%	-2.7	-5.3%	-1.8

Additional results:
item	smiles	Six1-Eya2 blk	D2 PAM	CtBP-E1A inh	PINK1 modulator	TRPV1 PAM	Sfp inh	D2 ag
31	CCCOC(=O)c1ccc(NC(=O)C(CC)CC)cc1	12.9	-6.0	7.3	-0.4%	17.2	1.0%	-0.6
32	Brc1ccc(-c2nnc(-c3ccccc3)c(N3CCSCC3)n2)cc1	-7.6	-2.8	7.9	1.1%	11.4	-9.5%	-4.4
33	Cc1ccc(S(=O)(=O)N2CCN(C(=O)/C=C/c3ccccc3)CC2)cc1C	-0.6	-0.5	6.3	0.5%	1.4	.	2.2
34	COc1cc(/C=C/C(=O)OCC(=O)NC(=O)NC(C)(C)C)ccc1O	0.0	-12.7	0.0	1.3%	1.1	8.1%	1.0
35	CCOC(=O)NC(=O)C(=CNc1ccccc1C)C(=O)NC(=O)OCC	-1.4	2.9	0.7	1.4%	10.1	-9.9%	0.0
36	Cc1cc(C)c(S(=O)(=O)Nc2cccc(S(=O)(=O)N3CCOCC3)c2)c(C)c1	-3.7	6.8	0.9	-0.2%	-3.0	8.0%	5.6
37	Cc1ccc(NC(=O)Cn2nnc(C(=O)NCc3cccs3)c2N)cc1F	-1.3	-2.5	7.3	1.0%	25.3	-2.1%	0.7
38	CCCCC(=O)N(C)c1c(C)nc2ccc(C(=O)NCCOc3ccc(OC)cc3)cn12	4.8	-7.1	-22.5	-0.4%	.	.	-4.5
39	CC(NC(=O)CC(O)(C(F)(F)F)C(F)(F)F)c1ccccc1 (stereo unspecified)	12.1	4.5	31.3	-2.1%[38.3 µM]	2.2	-1.9%	0.2
40	Cc1nc2cc3ccccc3cc2s1	1.6	-4.0	18.8	6.4%	.	.	7.0

item	smiles	Six1-Eya2 blk	D2 PAM	CtBP-E1A inh	PINK1 modulator	TRPV1 PAM	Sfp inh	D2 ag
41	CCCC(=O)c1ccc(N2CCN(C(=O)c3cccs3)CC2)c(F)c1	0.8	-10.3	-0.4	0.2%	8.2	4.5%	0.0
42	Cc1ccccc1-c1cc(C(=O)O)nn1CC1CC(c2cccc([N+](=O)[O-])c2)=NO1 (stereo unspecified)	9.1	-8.5	6.9	0.0%	-17.5	.	-0.9
43	O=C(/C=C/c1ccc(F)cc1)NC(=S)NNC(=O)[C@H]1C[C@@H]1c1ccccc1	-14.7	-14.6	.	4.9%	-1.8	18.7%	0.1
44	Cn1cc(-c2ccccc2)cc(C#N)c1=O	3.9	-3.8	9.3	0.9%	2.4	12.3%	-2.2
45	NC(=O)c1c(-c2ccccc2)oc2ccc(O)cc12	4.7	-2.9	-0.5	-2.2%[38.3 µM]	-4.8	12.1%	-2.6
46	COc1cccc2cc(C(C)=O)c(=O)oc12	1.2	-1.3	5.8	?	2.5	-12.7%	0.9
47	Cc1ccccc1-n1cnnc1SCC(=O)Nc1cccnc1Cl	2.1	1.6	3.4	-1.9%	-5.8	-6.5%	0.7
48	COCCN(C(=O)COC(=O)Cc1c(C)nc2ccccc2c1C)c1c(N)n(CC(C)C)c(=O)[nH]c1=O	10.4	-1.3	11.3	-0.4%	.	.	-3.5
49	COc1ccc(Cl)cc1C(=O)NCc1cn(C)nc1C	11.1	4.1	-1.5	-0.6%	-7.2	23.2%	1.3
50	CCn1cc(C(=O)Nc2ccc(NC(=O)c3ccco3)cc2)c(=O)c2ccc(C)nc21	34.8	-5.5	0.0	3.3%	3.2	15.7%	-1.3
51	COc1ccc(C(C)=O)cc1COc1ccc(Cl)c(C)c1	-3.5	-7.5	7.4	3.6%	-5.0	-13.3%	-5.7

Assay outcomes as filed in PubChem BioAssay.
